From PubChem BioAssay
Beta apoptosis – beta cell apoptosis inhibition; protection from apoptosis, % (test concentration not listed); 300,000 tested, 0.8% active; INS-1E cytokine-induced death, ATP luminescence, 48 h; percent of positive-control rescue, neutral wells zero;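 active = all replicates at 75% or more, or half of them and the mean; inconclusive = half reach 75% but not the mean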;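 also: 0% = cytokine-treated negative control wells and 100% = positive control rescue; higher means more ATP so stronger rescue from cytokine killing; wells of about 40 µL received 100 nL stock; the first replicate is given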
RanGTP-Impb inh – disruptors of Ran-importin-beta complex formation – biochemical, FRET, CFP-Ran, YFP-importin-beta, homogeneous, primary screen | cell-free CFP-Ran/YFP-importin-beta FRET ratio | inhibition, % (no concentration beside the values) | 300,000 tested, 1.1% active;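 active = most replicates above 15%; inconclusive = exactly half above 15%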;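 also: 0% = DMSO wells and 100% = Ran loaded with GDP instead of GTP; wells of about 40 µL received 100 nL stock; the first replicate is given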
MLL AF4-AF9 inh – blocks AF4 peptide binding to human AF9 | AlphaScreen, biotin-AF4 peptide binding to FLAG-AF9 | P42568 | inhibition, % at 10 µM | 350,000 tested, 0.47% active;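 active = every replicate reaching a set inhibition limit, whatever the replicate mean, cut at about 25% in these data; inconclusive = mean inhibition reaches that limit but some replicates miss it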;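 also: 0% = plate neutral control median and 100% = total signal loss; the record names both 10 and 1 µM as test concentration; the first replicate is given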
Target sequence (P42568 whole entry, looked up): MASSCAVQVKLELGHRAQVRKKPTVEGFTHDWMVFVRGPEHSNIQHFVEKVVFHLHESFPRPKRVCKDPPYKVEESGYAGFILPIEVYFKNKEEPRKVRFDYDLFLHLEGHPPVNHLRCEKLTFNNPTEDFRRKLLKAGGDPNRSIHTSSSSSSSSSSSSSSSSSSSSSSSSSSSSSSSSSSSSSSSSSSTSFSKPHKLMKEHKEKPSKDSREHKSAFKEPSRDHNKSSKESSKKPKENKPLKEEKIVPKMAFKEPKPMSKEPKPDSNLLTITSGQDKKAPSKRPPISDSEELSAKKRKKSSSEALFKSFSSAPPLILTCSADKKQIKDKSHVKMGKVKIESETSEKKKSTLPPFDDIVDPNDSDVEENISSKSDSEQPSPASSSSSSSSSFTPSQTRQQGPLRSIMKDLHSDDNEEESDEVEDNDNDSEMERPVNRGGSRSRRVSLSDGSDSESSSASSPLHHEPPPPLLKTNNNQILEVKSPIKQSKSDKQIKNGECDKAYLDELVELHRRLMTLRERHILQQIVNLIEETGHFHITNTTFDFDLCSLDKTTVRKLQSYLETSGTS
Ecoli rRNA inh – selective bacterial rRNA inhibition in E. coli | E. coli WT GFP vs humanized-ribosome RFP mutants, fluorescence, 24 h; hits give low values; DMSO median 0, no signal -100 | GFP signal change (wild-type ribosome), % (no concentration beside the values) | 350,000 tested, 1.6% active | AID 720706;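 active = significant combined selectivity score with lowered wild-type GFP, culture density cut under 30%, mutant RFP and density less affected; inactive = any of these conditions unmet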; also: one replicate is shown; some compounds called inactive have numbers as strong as hits
A1 inh – inhibitors of the anti-apoptotic protein A1, read as caspase activation | MEF A1-2A-BIM cells, Caspase-Glo 3/7 luminescence, 3 h; percent of clofoctol response, vehicle zero | caspase activation, % (no concentration beside the values) | 330,000 tested, 0.066% active;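 active = over half of replicate activation scores above 10%, or exactly half above 10 with the replicate mean above 10; inconclusive = replicate mean below 10 yet half the replicates above 10; inactive = over half of replicates below 10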;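 also: wells of about 30 µL received 50 nL stock; many hits fall short of the cut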
T cruzi repl – blocks replication of Trypanosoma cruzi; 300,000 tested, 1.4% active; T. cruzi beta-gal in NIH3T3, luminescence, 90 h; inhibition, % (no concentration beside the values);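 active = mean inhibition across valid replicates above about 55%, limit read from the data; inconclusive = mean below that limit but half or more replicates reach it; inactive = mean below it, under half of replicates reach it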;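 also: signal also drops with host cell toxicity which is not excluded here; 0% = plate median of DMSO wells and 100% = zero luminescence signal; higher percent means less beta-gal luminescence so fewer parasites; stock transfer was 50 nL into about 50 µL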
Calb FLC – affects C. albicans growth with fluconazole; C. albicans CaCi-2 (fluconazole-resistant clinical isolate) + fluconazole, Alamar Blue growth, 48 h; growth inhibition, % (test concentration not listed); 300,000 tested, 0.57% active;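 active = most replicates above 75%; inconclusive = exactly half above 75%; inactive = most below 75%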;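 also: all wells also contain fluconazole at 8 µg/ml as a sub-toxic cotreatment; 0% = median of DMSO wells and 100% = median of geldanamycin control wells; wells of about 8 µL received 7.5 nL stock; the first replicate is given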
Vif TR-FRET – HIV-1 Vif–A3G interaction blockers – biochemical, TR-FRET, GST-Vif 1-94, biotin-A3G peptide, dose response retest, primary screen (AID 1117319); inhibition, %, or IC50 in µM where a hit was titrated; 260,000 tested, 0.57% active; TR-FRET GST-Vif / biotin-A3G peptide binding; higher % means a stronger effect; test concentration not given here; strong numbers were not always called active;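 active = above the screen mean plus three standard deviations and confirmed in dose response; inconclusive = results disagree or hit not tested in dose response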;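 also: Vif residues 1-94 fused to GST binding biotinylated APOBEC3G peptide 110-148; 0% = full assay without inhibitor and 100% = GST in place of GST-Vif; retest series ran down from 100 µM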
Ecoli rRNA inh OD600 – further read-out of Ecoli rRNA inh, marked with its call; OD600 change, %; measured here: OD600 growth;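 optical density of the mix in the first replicate; 0 = DMSO median and -100 = no signal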
Ecoli rRNA inh RFP – also measured in Ecoli rRNA inh; calls as there; RFP signal change, %; measured here: RFP humanized mutant strains;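 first replicate; 0 = DMSO median and -100 = no signal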
An asterisk follows results filed as active; ? = inconclusive; . = no result given; & = joins results of further samples. Not all compounds are listed; count on the stated rates, not on these rows.

SMILES	Beta apoptosis	RanGTP-Impb inh	MLL AF4-AF9 inh	Ecoli rRNA inh	Ecoli rRNA inh OD600	Ecoli rRNA inh RFP	A1 inh	T cruzi repl	Calb FLC	Vif TR-FRET
COCCCn1c(C)nc2c(c1=O)c1nc3ccccc3nc1n2CCc1ccccc1	10	6.7	.	.	.	.	-1.3	17	19	0%
Cn1cncc1C(=O)c1ccccc1	.	-5.5	-0.4	-1	-13	-1.3	-0.1	-5	-1	-2%
O=C(CCn1c(=O)c2cccn2c2ccc(F)cc21)NCCc1ccccc1	1	-0.2	-3.1	3	-13	-4.9	0.8	28	12	-1%
N#Cc1ccccc1OCC(O)CS(=O)(=O)c1ccccc1 (stereo unspecified)	-7	-0.1	-2.3	10	4	0.5	0.0	-10	-9	9%
CCOC(=O)c1c(C)c(C(=O)NCc2cccnc2)c(C)n1CC	-3	-0.1	.	.	.	.	0.1	-14	-4	6%
Cc1ccc2nc(NCCCO)nc(-c3ccccc3)c2c1	13	30*	.	.	.	.	-2.0	10	-1	0%
COc1ccc(S(=O)(=O)Nc2ccc3c(c2)C(=O)N([C@H](C)CO)C[C@H](C)[C@H](CN(C)Cc2ccc(C(=O)O)cc2)O3)cc1	-4	.	-8.4&0.7	3&4	6&7	-0.6&-5.2	0.1	.	.	.
Cc1ccc(S(=O)(=O)Nc2c(NC3CCCCC3)c3ccccc3oc2=O)c(C)c1	13	5.3	.	.	.	.	-0.5	10	27	-5%
O=C(N/N=C/c1cc(Br)c(O)c(Br)c1O)c1ccc2c(c1)OCCO2	91*	5.1	-5.6	-19*	-13*	1.8*	-0.1	0	-24	.
N#Cc1ccc(S(=O)(=O)N2CCC(N3CCCCC3)CC2)cc1	-1	?	-1.5	0	1	-1.8	?	12	10	.
CC1NC(=O)c2ccccc2-n2c1nc1cc(F)ccc1c2=O (stereo unspecified)	-2	.	-33	4	14	5.3	1.9	.	.	.
CCC(C)NC(=O)C1CCC(=O)N1Cc1ccc(C)cc1 (stereo unspecified)	3	-2.6	.	.	.	.	0.4	-17	0	11%
Cc1ccsc1-c1nc(CN2CCN(C)C(=O)[C@@H]2C)c(C)o1	3	-2.3	-6.3	6	-6	-1.6	-0.2	-4	-9	-1%
COc1cccc(Nc2nnc(SCC3CCCCO3)s2)c1 (stereo unspecified)	3	-1.9	-0.3	-21	-23	-5.4	0.6	21	6	.
CCOC(=O)C1=C(C)Nc2nc(SCC)[nH]c(=O)c2C1c1ccncc1 (stereo unspecified)	.	-1.6	.	.	.	.	0.4	-3	-5	5%
CC1=C(C(=O)OCc2ccccc2)C(c2ccc(C(F)(F)F)cc2)NC(=O)N1CCCCCC(=O)O (stereo unspecified)	0	0.4	-1.0	-15	-9	2.0	0.6	-11	-16	2%
C=CCN(CC(=O)NC1CC1)S(=O)(=O)c1cccc(C(F)(F)F)c1	1	.	-4.6	7	13	-0.6	-1.0	.	.	.
NC(=O)c1cc(-c2ccccc2)nc(N2CCOCC2)n1	-1	-2.0	.	.	.	.	-0.1	23	-4	6%
O=c1oc2c(CN3CCOCC3)c(O)c(Cl)cc2c2c1CCCC2	-3	85*	.	-12	-2	3.5	0.1	-3	-3	22%
Cc1cccc(-c2cc(C(=O)Nc3ccc4c(c3)OCCO4)c3ccccc3n2)c1	21	2.8	.	.	.	.	0.1	37	6	-2%

Structural class, the entries above with a CF3 group
SMILES	Beta apoptosis	RanGTP-Impb inh	MLL AF4-AF9 inh	Ecoli rRNA inh	Ecoli rRNA inh OD600	Ecoli rRNA inh RFP	A1 inh	T cruzi repl	Calb FLC	Vif TR-FRET
CC1=C(C(=O)OCc2ccccc2)C(c2ccc(C(F)(F)F)cc2)NC(=O)N1CCCCCC(=O)O (stereo unspecified)	0	0.4	-1.0	-15	-9	2.0	0.6	-11	-16	2%
C=CCN(CC(=O)NC1CC1)S(=O)(=O)c1cccc(C(F)(F)F)c1	1	.	-4.6	7	13	-0.6	-1.0	.	.	.

Carrying on.
SMILES	Beta apoptosis	RanGTP-Impb inh	MLL AF4-AF9 inh	Ecoli rRNA inh	Ecoli rRNA inh OD600	Ecoli rRNA inh RFP	A1 inh	T cruzi repl	Calb FLC	Vif TR-FRET
Cc1ccc(Sc2cc(C(F)(F)F)nc(N(C)C)n2)cc1	4	-0.4	.	.	.	.	-1.0	-18	-13	1%
CCOC(=O)C1=C2c3ccc4ccccc4c3CC(C)(C)N2C(=O)C1=O	2	-4.1	3.7	-29*	-9.6*	0.6*	0.2	-1	2	-1%
CCC(NC(=S)NC1CCCCC1)c1ccc(C)cc1 (stereo unspecified)	8	3.0	.	.	.	.	-0.6	-4	-50	.
Cc1ccc(C)c(S(=O)(=O)N2CCCC2CNC(=O)C(=O)NC2CC2)c1 (stereo unspecified)	-4	-5.1	-7.2	7	12	-1.4	0.7	-15	-6	-2%
COc1ccc(/C=C2\N=C(C)N(c3ccc(C(=O)O)cc3)C2=O)cc1OC	-2	3.6	.	.	.	.	0.2	-3	-4	.
COc1ccc(OCc2nc3ccccc3[nH]2)cc1	.	-2.6	.	.	.	.	-8.1	-14	-11	-4%
COc1cc(NC(=O)c2ccc(=O)[nH]n2)cc(OC)c1OC	-3	2.2	-1.4	12	15	1.0	-0.4	-1	2	1%
CC(C)(C)OC(=O)NCCCCC1=CC2=CC(=O)C(C)(OC(=O)c3ccco3)C(=O)C2=CO1 (stereo unspecified)	-3	-7.1	.	.	.	.	?	-10	-5	.
CCOc1ccc(NC(=S)N2CCN(S(C)(=O)=O)CC2)cc1	-6	-2.7	-1.0	12	4	0.4	0.3	0	21	.
Cc1ccc(S(=O)(=O)N2CCN(C(=O)c3cc(C4CC4)nc4c3cnn4C(C)C)CC2)cc1	-6	.	2.7	0	1	-1.1	1.9	.	.	1%
CCOC(=O)C(=NC1CCS(=O)(=O)C1)NNc1ccccc1Cl (stereo unspecified)	1	1.3	14	9	6	-0.8	0.2	-5	-9	?
COc1cc(Cl)c(C)cc1NC(=O)Cc1ccc(OC)c(OC)c1	-1	4.9	0.3	-38	-56	-8.7	-1.1	7	2	.
CCOC(=O)c1nn(-c2ccccc2)c(C#N)c1N	-3	0.3	-4.4	14	14	0.1	0.6	-18	17	?
COc1ccccc1C/C(N)=N/OC(=O)COc1cccc(C)c1C	-5	3.9	-5.1	-3	-4	-0.3	0.1	2	-8	-6%
CCOC(=O)C1CCN(C(=S)NC(=O)c2cccs2)CC1	-5	-3.3	-4.3	6	2	1.6	-1.4	-15	30	.
CCCN(CC(=O)Nc1ccccc1C)C(=O)c1ccc(N2CCOCC2)c([N+](=O)[O-])c1	1	0.3	-2.9	-7	2	-2.2	0.6	2	3	.
Cc1c(NS(=O)(=O)c2cccc(C(=O)NCc3ccccc3)c2)c(=O)n(-c2ccccc2)n1C	-2	-1.7	.	.	.	.	0.3	3	-5	-4%
COc1ccccc1C1CC(c2ccc(Cl)cc2)Nc2nc(N)nn21 (stereo unspecified)	2	18*	.	.	.	.	-1.0	13	1	3%
COc1cccc(OC)c1C(=O)Nc1nnc(-c2ccc(F)cc2)s1	2	3.2	-3.5	-16	-20	-2.7	-0.1	-7	-6	.
O=C(CSc1ccc(-c2cccc([N+](=O)[O-])c2)nn1)NC1CCCC1	-4	-2.3	-3.2	10	5	0.2	-0.5	2	1	2%

4 compounds drawn at random from the list so far, as already listed:
SMILES	Beta apoptosis	RanGTP-Impb inh	MLL AF4-AF9 inh	Ecoli rRNA inh	Ecoli rRNA inh OD600	Ecoli rRNA inh RFP	A1 inh	T cruzi repl	Calb FLC	Vif TR-FRET
CCCN(CC(=O)Nc1ccccc1C)C(=O)c1ccc(N2CCOCC2)c([N+](=O)[O-])c1	1	0.3	-2.9	-7	2	-2.2	0.6	2	3	.
Cc1ccc(Sc2cc(C(F)(F)F)nc(N(C)C)n2)cc1	4	-0.4	.	.	.	.	-1.0	-18	-13	1%
COc1cc(Cl)c(C)cc1NC(=O)Cc1ccc(OC)c(OC)c1	-1	4.9	0.3	-38	-56	-8.7	-1.1	7	2	.
CCOC(=O)c1nn(-c2ccccc2)c(C#N)c1N	-3	0.3	-4.4	14	14	0.1	0.6	-18	17	?

Next part.
SMILES	Beta apoptosis	RanGTP-Impb inh	MLL AF4-AF9 inh	Ecoli rRNA inh	Ecoli rRNA inh OD600	Ecoli rRNA inh RFP	A1 inh	T cruzi repl	Calb FLC	Vif TR-FRET
Cc1nc(SCc2nc3c(F)cccc3[nH]2)c2oc3ccccc3c2n1	-1	.	0.2	3	1	1.6	-0.5	.	.	.
COc1ccc(C(C(=O)NCc2ccccc2)N(C(=O)c2snc(C(N)=O)c2N)c2ccccc2OC)cc1 (stereo unspecified)	-8	-13	-9.3	-2	11	-0.1	-0.3	18	32	.
CC(=O)Oc1ccc(C(=O)Nc2ccccc2C(=O)N2CCCCC2)cc1	0	0.8	-0.4	-2	1	-3.4	-0.7	-2	4	-1%
COCCCNc1nc2c(c(=O)n(Cc3ccc(F)cc3)c(=O)n2C)n1C	-1	1.1	-1.9	-3	1	-2.8	-0.4	-11	6	5%
CCCCNC(=O)C1CCN(c2nc(OC)nc(OC)n2)CC1	-6	7.1	.	.	.	.	0.6	6	-10	.

Sorted by number of heavy atoms (lowest first): some entries from above
SMILES	Beta apoptosis	RanGTP-Impb inh	MLL AF4-AF9 inh	Ecoli rRNA inh	Ecoli rRNA inh OD600	Ecoli rRNA inh RFP	A1 inh	T cruzi repl	Calb FLC	Vif TR-FRET
CCCCNC(=O)C1CCN(c2nc(OC)nc(OC)n2)CC1	-6	7.1	.	.	.	.	0.6	6	-10	.
CC(=O)Oc1ccc(C(=O)Nc2ccccc2C(=O)N2CCCCC2)cc1	0	0.8	-0.4	-2	1	-3.4	-0.7	-2	4	-1%
COc1ccc(C(C(=O)NCc2ccccc2)N(C(=O)c2snc(C(N)=O)c2N)c2ccccc2OC)cc1 (stereo unspecified)	-8	-13	-9.3	-2	11	-0.1	-0.3	18	32	.
